Source: PubChem (Vanderbilt University)
GIRK2 act: activators of human GIRK2 potassium channels. G protein-activated inward rectifier potassium channel 2 (Homo sapiens), P48051. HEK293-GIRK2 thallium flux, Thallos fluorescence. calls only for hits at 25 µM. 0.05% of 63,000 active;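 active = among the strongest 0.2% of first-round signals and kept after retests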;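 note: first round at about 10 µM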
Target sequence (P48051 whole entry, looked up): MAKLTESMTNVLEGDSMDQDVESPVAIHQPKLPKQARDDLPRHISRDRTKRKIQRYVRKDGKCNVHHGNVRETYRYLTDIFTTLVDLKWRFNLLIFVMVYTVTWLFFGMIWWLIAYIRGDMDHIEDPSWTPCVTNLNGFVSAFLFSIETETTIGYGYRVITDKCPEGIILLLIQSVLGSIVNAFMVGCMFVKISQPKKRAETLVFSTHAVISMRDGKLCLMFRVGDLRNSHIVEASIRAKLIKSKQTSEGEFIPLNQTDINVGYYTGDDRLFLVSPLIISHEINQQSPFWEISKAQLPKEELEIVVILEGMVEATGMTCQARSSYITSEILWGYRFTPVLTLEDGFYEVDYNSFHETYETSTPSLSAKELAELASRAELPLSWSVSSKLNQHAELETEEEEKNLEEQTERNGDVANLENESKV
Calls only; i = inactive. These rows are one share of the data; count on the stated rates, not on these rows.

SMILES	GIRK2 act
O=C(Cn1cccc(S(=O)(=O)N2CCCC2)c1=O)Nc1ccc(F)c(F)c1	i
Cc1cc(CCNC(=O)C2CC=CCC2)on1 (centres undefined)	i
COc1ccccc1S(=O)(=O)N1CCN(c2ccc(-c3noc(C4CC4)n3)cn2)CC1	i
COC(=O)C[C@@H]1C(C(=O)OC)=CO[C@@H](O[C@@H]2O[C@H](CO)[C@@H](O)[C@H](O)[C@H]2O)/C1=C\COC(=O)/C=C/c1ccccc1	i
COCCc1noc(Cn2cc(-c3nc(-c4ccc(OC)c(F)c4)no3)ccc2=O)n1	i
COc1cc(C(=O)Nc2ccc(F)c(F)c2F)on1	i
COc1ccc(OC)c(NC(=O)/C=C/c2ccc(OC)c(OC)c2)c1	i
O=C(c1cc(-c2ccccc2)n[nH]1)N1CCN(c2cc(-c3ccccc3)ncn2)CC1	i
Cc1ccccc1Cn1c(N2CCN(C)CC2)nc2c1c(=O)[nH]c(=O)n2C	i
Cc1ccc(Cl)cc1NC(=O)c1n[nH]nc1Nc1ccc(F)cc1	i
O=C(Cn1cnc2ccccc21)Nc1ccc(-n2cnnn2)cc1	i
COc1cc2cc(CNc3ccccc3)c(=O)n(CC(=O)Nc3ccc(C(C)C)cc3)c2cc1OC	i
COc1ccc2c(C3=C(c4cn(C)c5ccccc45)C(=O)NC3=O)cn(C)c2c1	i
O=C(Cc1cc(=O)[nH]c(SCc2ccccc2F)n1)N1CCc2ccccc21	i
Cc1ccc(-c2cc(=O)n(CC(=O)Nc3cc(Cl)cc(Cl)c3)[nH]2)cc1	i
O=C(O)C1(NS(=O)(=O)c2cccc(Cl)c2)CCCCC1	i
COC(=O)C1=C(CS(=O)(=O)c2ccc(Br)cc2)NC(=O)NC1c1ccc(C)cc1 (centres undefined)	i
CC1CCN(c2nccnc2Oc2ccc(C(=O)N3CCc4ccccc4C3)cc2)CC1	i
O=C(NCc1cccc(C(F)(F)F)c1)c1cn(CC(O)c2ccccc2)nn1 (centres undefined)	i
O=C(NCCNc1ccc(-n2cccc2)nn1)c1cccc2ccccc12	i

A draw from above in order of length of the SMILES, falling.
SMILES	GIRK2 act
COC(=O)C[C@@H]1C(C(=O)OC)=CO[C@@H](O[C@@H]2O[C@H](CO)[C@@H](O)[C@H](O)[C@H]2O)/C1=C\COC(=O)/C=C/c1ccccc1	i
O=C(NCc1cccc(C(F)(F)F)c1)c1cn(CC(O)c2ccccc2)nn1 (centres undefined)	i
O=C(O)C1(NS(=O)(=O)c2cccc(Cl)c2)CCCCC1	i

Next section
SMILES	GIRK2 act
CN(C)c1ncnc2c1oc1ccccc12	i
Cc1cc(C(=O)N2CCC(S(C)(=O)=O)C2)c(C)o1 (centres undefined)	i
COCCCN1COc2ccc3c(=O)c(Oc4ccc(C(=O)OC)cc4)c(C(F)(F)F)oc3c2C1	i
O=C1CCC(=O)N1CC(=O)N1CCCSCC1CN1CCCC1 (centres undefined)	i
CNC(=O)Cn1c(=O)c2c(N3CCN(C(=O)c4ccco4)CC3)ccnc2n(C)c1=O	i
O=C(Cn1ccc2ccccc21)N1CCC(COCc2ccccc2)CC1	i
CNC(=O)C1CCC(Cn2c(=O)c3sccc3n(CC(=O)NCc3ccccc3)c2=O)CC1 (centres undefined)	i
Cc1nc(OCC(=O)Nc2nc(-c3ccccc3)cs2)cc(-n2cccn2)n1	i
COc1ccc(N2C(=O)C3N=NN(Cc4nc(-c5ccc(C)cc5)no4)C3C2=O)cc1 (centres undefined)	i
Cc1cccc(Nc2ccccc2C(=O)O)c1C	i
CC(C)(O)c1ccc2c(c1)C(=O)C[C@H]1[C@](C)(C(=O)O)CCC[C@]21C	i
O=C1C2N=NN(Cc3nc(-c4ccc(Br)cc4)no3)C2C(=O)N1c1ccc(F)cc1 (centres undefined)	i
COc1cccc2cc(C(=O)NCCCn3ncccc3=O)oc12	i
COc1ccc(CN2CCc3nc(SCC(=O)Nc4ccc(C(C)=O)cc4)[nH]c(=O)c3C2)cc1	i
O=C1CCSCC(C(=O)NCc2ccc(OCc3ccccc3)cc2)N1 (centres undefined)	i
Cc1nc(CSc2ncnc3sc4c(c23)CCC4)cs1	i
O=C(Nc1ccc2cn[nH]c2c1)c1ccc(F)cc1F	i
COc1ccccc1NC(=O)CSc1nnc(-c2ccc(OC)c(OC)c2)n1N	i
COC(=O)c1ccc(CSc2ncc(CO)n2Cc2ccc(F)cc2)o1	i
CC(=O)N1CCC(CSc2ccccn2)CC1	i

Some of the entries above, reformatted.
Molecule | GIRK2 act
O=C1CCC(=O)N1CC(=O)N1CCCSCC1CN1CCCC1 (centres undefined) | i
CNC(=O)Cn1c(=O)c2c(N3CCN(C(=O)c4ccco4)CC3)ccnc2n(C)c1=O | i
O=C(Cn1ccc2ccccc21)N1CCC(COCc2ccccc2)CC1 | i
CNC(=O)C1CCC(Cn2c(=O)c3sccc3n(CC(=O)NCc3ccccc3)c2=O)CC1 (centres undefined) | i
Cc1nc(OCC(=O)Nc2nc(-c3ccccc3)cs2)cc(-n2cccn2)n1 | i
COc1ccc(N2C(=O)C3N=NN(Cc4nc(-c5ccc(C)cc5)no4)C3C2=O)cc1 (centres undefined) | i
Cc1cccc(Nc2ccccc2C(=O)O)c1C | i
CC(C)(O)c1ccc2c(c1)C(=O)C[C@H]1[C@](C)(C(=O)O)CCC[C@]21C | i
O=C1C2N=NN(Cc3nc(-c4ccc(Br)cc4)no3)C2C(=O)N1c1ccc(F)cc1 (centres undefined) | i
COc1cccc2cc(C(=O)NCCCn3ncccc3=O)oc12 | i
COc1ccc(CN2CCc3nc(SCC(=O)Nc4ccc(C(C)=O)cc4)[nH]c(=O)c3C2)cc1 | i
O=C1CCSCC(C(=O)NCc2ccc(OCc3ccccc3)cc2)N1 (centres undefined) | i
Cc1nc(CSc2ncnc3sc4c(c23)CCC4)cs1 | i
O=C(Nc1ccc2cn[nH]c2c1)c1ccc(F)cc1F | i
COc1ccccc1NC(=O)CSc1nnc(-c2ccc(OC)c(OC)c2)n1N | i
COC(=O)c1ccc(CSc2ncc(CO)n2Cc2ccc(F)cc2)o1 | i
CC(=O)N1CCC(CSc2ccccn2)CC1 | i

(cont.)
SMILES	GIRK2 act
COc1ccc(CNC(=O)Cn2ncn3nc(-c4ccc(F)cc4)cc3c2=O)cc1	i
COc1ccc(S(=O)(=O)N2CCCc3cc(NS(=O)(=O)Cc4cccc(C)c4)ccc32)cc1	i
COC(=O)COc1ccc2c(=O)c(-c3ccccc3OC)c(C(F)(F)F)oc2c1	i
Cc1c(Cl)cccc1NC(=O)C(=O)NCC(c1cn(C)c2ccccc12)N(C)C (centres undefined)	i
COc1cccc2cc(C(=O)N3CCC(Cn4ccnc4C(C)C)CC3)oc12	i
CCOc1cc(S(=O)(=O)n2cnc(C)c2)ccc1F	i
O=C(Nc1ccc(F)cc1F)N1CCN(c2nc(N3CCOCC3)nc(-n3ccnc3)n2)CC1	i
O=C(CCC1CCCCC1)NCC#CCN1CCCCC1	i
O=C1c2oc3ccc(Cl)cc3c(=O)c2C(c2cccc(F)c2)N1CC(O)c1ccccc1 (centres undefined)	i
O=C(O)c1ccc(CNS(=O)(=O)c2cccc(Cl)c2)cc1	i
O=C(Cn1cc(-c2nc(-c3ccc(Cl)cc3)no2)ccc1=O)Nc1ccc(F)cc1	i
CC1CN(c2ccc(Oc3ccccc3)cc2)c2nc3c(c(=O)n(CC(N)=O)c(=O)n3C)n2C1 (centres undefined)	i
CCCCNC(=O)CCc1nnc2n(Cc3ccc(Cl)cc3)c(=O)c3ccccc3n12	i
Cc1noc(CNC(=O)c2ccc(Br)o2)n1	i
COC(=O)CSc1nc(-c2ccco2)cc(C(F)(F)F)c1C#N	i
COc1ccc(N2CCCn3c2nc2c3c(=O)n(C/C=C/c3ccccc3)c(=O)n2C)c(OC)c1	i
O=C(c1cncc(Br)c1)N1CCN(Cc2nc3ccccc3n2Cc2ccccc2)CC1	i
O=S(=O)(c1ccccc1)N1CCCC(c2nnc(Cc3ccccc3)s2)C1 (centres undefined)	i
CCN(C1CCCCC1)S(=O)(=O)c1cc(C(C)C)c(C)cc1OC	i
Cc1ccc(N(C)C(=O)N2CCN(S(=O)(=O)c3cccc([N+](=O)[O-])c3)CC2)cc1	i
COc1ccc(CNC(=O)Cn2nc3c(=O)n(-c4ccc(Br)cc4)ccn3c2=O)cc1	i
Clc1ccccc1-n1ncc2c1ncn1nc(C3CCCO3)nc21 (centres undefined)	i
Cc1ccc(C)c(S(=O)(=O)NC(C)C(=O)Nc2ccccc2F)c1 (centres undefined)	i
O=C(NCc1ccccn1)C1CCN(c2ccc(Sc3cccc(F)c3)nn2)CC1	i
O=C1CCCC(=O)N1CCS(=O)(=O)NCC1(O)CCCC1	i
Cn1nc(C2CCN(C(=O)c3ccco3)CC2)n(-c2ccccc2)c1=O	i
COc1ccc(C)cc1N1CCCn2c1nc1c2c(=O)n(CCc2ccccc2)c(=O)n1C	i
CCc1cc(=O)[nH]c(SCc2nc(-c3ccccc3OCc3ccccc3)no2)n1	i
Cc1cc(C(F)(F)F)nc(CCNC(=O)Cc2ccc(SC(C)C)cc2)n1	i
Cc1noc(C2CN(C(=O)c3ccc(Cl)s3)C2)n1	i
Cc1cnc(C(=O)N2CCCC(c3nnc(-c4ccccc4F)s3)C2)cn1 (centres undefined)	i
O=c1oc(C23CC4CC(CC(C4)C2)C3)nc2sc3c(c12)CCCC3	i
N#Cc1ccc(COCC2CCN(Cc3ccccn3)CC2)cc1	i
CN1CCC(CNC(=O)NCc2cccc3ccccc23)CC1	i
Cc1nc(-c2cccs2)sc1CNC(=O)C(C)Oc1ccccc1F (centres undefined)	i
COc1ccccc1-n1c(SCC(=O)Nc2ncn[nH]2)nc2ccccc2c1=O	i
Cc1cc(C)n(-c2ccc(C(=O)Nc3ccc(Br)c(C)c3)nn2)n1	i
O=C(Cn1nc(S(=O)(=O)c2cccc(F)c2)ccc1=O)NC1CCc2ccccc21 (centres undefined)	i
O=C(Cn1ncn2nc(-c3ccc(Cl)cc3)cc2c1=O)Nc1ccccc1C(F)(F)F	i
Cn1cc(OCc2ccc(F)cc2)c(=O)cc1C(=O)Nc1ccc(Oc2ccccc2)cc1	i
O=C(NCc1ccc(C(F)(F)F)cc1)C1CCN(c2cc(Oc3ccccc3)ncn2)CC1	i
COc1ccc(NC(=O)Cn2ncc3c(c2=O)N(C)C(=O)CS3)cc1OC	i
CCOC(=O)N1CCN(C2CC(=O)N(c3cc(OC)ccc3OC)C2=O)CC1 (centres undefined)	i
CC(O)CN1CCN(S(=O)(=O)c2cc(F)ccc2F)CC1 (centres undefined)	i
COc1ccc(N2C(=O)C3N=NN(Cc4cc(OC)ccc4Br)C3C2=O)cc1 (centres undefined)	i
COc1ccc(-c2csc(CN3CCN(C(=O)CCS(=O)(=O)c4ccccc4)CC3)n2)cc1	i
Cc1cc(C(=O)N(Cc2ccsc2)CC(F)(F)F)c(C)o1	i
COc1ccccc1Cn1c(C2CC(=O)N(C)C2)nc2ccccc21 (centres undefined)	i
CCOC(=O)CC1=CC(=O)N(CC(=O)Nc2ccc(C)cc2Br)c2ccccc2N1	i
CC(O)c1nc2ccccc2n1Cc1ccc(Br)cc1 (centres undefined)	i
CCOC(=O)N1CCN(C2CC(=O)N(c3ccccc3Cl)C2=O)CC1 (centres undefined)	i
COC(=O)CC1C(=O)NCCN1C(=O)c1cc2cccc(OC)c2oc1=O (centres undefined)	i
CCc1[nH]nc(S(=O)(=O)NCc2cccc(OC)c2)c1C(=O)OC	i
O=C(CSc1cc(NCc2ccccc2Cl)ncn1)Nc1ccccc1Cl	i
CC(=O)c1cccc(NC(=O)Cn2cnc(-c3cccs3)cc2=O)c1	i
Cc1ccc(S(=O)(=O)N2CCN(C(=O)N3CCC(C)CC3)CC2)cc1C	i
C=CCn1nnnc1SCC(=O)Nc1c(C)cc(C)cc1C	i
Cn1nc(C(=O)N2CCN(c3ccccc3)CC2)ccc1=O	i
Cc1ccc2sc(NC(=O)C3CCN(S(=O)(=O)c4ccc(F)cc4)CC3)nc2c1C	i
O=C(c1ccc2ncsc2c1)N1CCC(c2nnc(-c3ccc(F)cc3)o2)CC1	i

(further entries)
SMILES	GIRK2 act
N#C/C(C(=O)NCc1ccccc1)=C1/N=C(NC(=O)c2cccs2)c2ccccc21	i
COc1ccc2c(=O)c3c(=O)n(CCc4ccccc4)c(-c4ccccc4)nc3oc2c1	i
Cc1ccc(Cn2cc(-c3noc(-c4ccc5c(c4)OCO5)n3)nn2)cc1	i
Cc1cc(S(=O)(=O)NCC(c2ccc3c(c2)OCO3)N2CCN(c3ccccc3)CC2)ccc1F (centres undefined)	i
Cc1nnc(NC(=O)c2ccc(OCc3ccc4ccccc4n3)cc2)s1	i
COc1ccccc1OCCn1c(CCNC(=O)C2CCCCC2)nc2ccccc21	i
COc1ccccc1C1(CNC(=O)C2(c3ccccc3)CCOCC2)CCOCC1	i
COCC1CCCN(Cc2c(F)cccc2Cl)C1 (centres undefined)	i
COC(=O)c1ccc(/C=C2\Oc3cc(OCC#N)cc(C)c3C2=O)cc1	i
O=C(c1csc(Nc2ncccn2)n1)N1CCC2(CC1)OCCO2	i
Cc1ccccc1-c1noc(CN2N=NC3C(=O)N(c4ccc(F)c(F)c4)C(=O)C32)n1 (centres undefined)	i
CC(=O)N1CCN(c2nnc(SCC(=O)NCc3ccco3)s2)CC1	i
Cc1oc(-c2cccc(Cl)c2)nc1CSc1nc2ccccc2c(=O)n1C(C)C	i
CN(C)CCN(C(=O)c1ccc(Cl)s1)c1nc2ccc(S(C)(=O)=O)cc2s1	i
CCS(=O)(=O)N1CCN(Cc2nc3ccc(OC)cc3[nH]2)CC1	i
Cc1cc(C)n(-c2ccc(=O)n(CCNC(=O)CCn3cnc4ccccc4c3=O)n2)n1	i
Cc1ccc(NC(=O)CC2Nc3ccccc3NC2=O)cc1[N+](=O)[O-] (centres undefined)	i
Cc1cc(Nc2ccc(NC(=O)Cc3cccs3)cc2)nc(N2CCCC2)n1	i
COCCn1c(=O)c2c(nc3n2CCN3c2cc(OC)ccc2OC)n(C)c1=O	i
Cc1ccc(-n2ccnc(SCC(=O)Nc3ccccc3C)c2=O)cc1C	i
O=C(O)CCCN1C(=O)C2C3CC(C4Sc5[nH]c(=O)sc5C=C34)C2C1=O (centres undefined)	i
COc1ccc(NC(C)=O)cc1NC(=O)CCCSc1ccc(NC(C)=O)nn1	i
Cc1nc2sc(C(c3ccccc3Cl)N3CCCC3)c(O)n2n1 (centres undefined)	i
